HIV Env fusion – HIV envelope-mediated fusion inhibition; HeLa-JRFL Env/CEM21 cell fusion, luciferase; inhibition, % at 12.3 µM; 360,000 tested, 1.1% active;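 active means mean replicate inhibition score of at least 50 and every replicate individually at or above 50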;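 further: 0% = plate neutral controls and 100% = maraviroc near 300 nM; one replicate is shown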
CSC inhib – cancer stem cell inhibition; 300,000 tested, 1.1% active; inhibition, % at 7.5 µM; AID 2717; cancer stem cell-like cells viability, luminescence;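 active means mean at 75% or more and at least half the replicates too; tested in HMLE shEcad cells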;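 further: 0% = median of negative and 100% = median of positive control wells; the first replicate is given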
PABP FP inh – blocks human PABP binding to poly(A) RNA. P11940. fluorescence polarization. inhibition, % at 35 µM. 290,000 tested, 1% active. AID 2014;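 active means 50% or more with normal probe brightness, or confirmed in later tests; about a fifth of its hits are not listed in these tables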;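 further: calls also rest on retests at 20 µM and on dose response follow-up; controls were probe without protein and protein plus probe with vehicle; some compounds called inactive have numbers as strong as hits; many hits fall short of the cut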
Target sequence (P11940 whole entry, looked up): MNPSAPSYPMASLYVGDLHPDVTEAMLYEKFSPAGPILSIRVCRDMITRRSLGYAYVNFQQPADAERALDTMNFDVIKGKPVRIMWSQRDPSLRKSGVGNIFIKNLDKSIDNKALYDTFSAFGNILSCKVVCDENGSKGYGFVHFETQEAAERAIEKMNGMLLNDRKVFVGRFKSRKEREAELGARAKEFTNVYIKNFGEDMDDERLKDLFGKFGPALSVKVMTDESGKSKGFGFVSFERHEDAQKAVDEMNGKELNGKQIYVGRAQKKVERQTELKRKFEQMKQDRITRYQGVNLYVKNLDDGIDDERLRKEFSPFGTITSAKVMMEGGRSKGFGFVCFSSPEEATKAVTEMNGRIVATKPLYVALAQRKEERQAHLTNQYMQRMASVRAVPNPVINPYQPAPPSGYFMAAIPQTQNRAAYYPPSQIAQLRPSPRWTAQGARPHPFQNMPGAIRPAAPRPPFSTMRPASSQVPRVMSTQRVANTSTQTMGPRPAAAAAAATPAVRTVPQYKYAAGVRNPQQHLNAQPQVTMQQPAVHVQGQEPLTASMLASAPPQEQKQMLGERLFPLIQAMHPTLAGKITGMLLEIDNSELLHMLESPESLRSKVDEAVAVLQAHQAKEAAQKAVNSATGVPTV
eIF4H FP inh – inhibitors of RNA binding by human eIF4H; Q15056; eIF4H fluorescence polarization binding assay; inhibition, % at 35 µM; 290,000 tested, 0.94% active; AID 2012;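 active means 50% or more with normal probe brightness, or confirmed in later tests; about a fifth of its hits are not listed in these tables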;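 further: calls also rest on retests at 20 µM and on dose response follow-up; 0% = protein and probe with vehicle and 100% = probe without protein; strong numbers were not always called active; many hits fall short of the cut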
Yeast UUG start – modulators of start codon recognition fidelity in yeast | S. cerevisiae UUG-firefly luciferase reporter, luminescence/redox ratio | activity score, % at 18.7 µM | AID 602363 | 350,000 tested, 0.13% active;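 active means replicate mean at a twofold rise or more, about +100% in these data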;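 further: firefly luciferase made from a UUG start codon reports start codon fidelity; reporter light over untreated wells divided by growth signal over untreated wells; some hits fall short of that in this replicate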
Rce1 inhib – yeast Ras-converting enzyme inhibition. Q03530. yeast membranes, quenched prenylated peptide cleavage fluorescence. calls only. 290,000 tested, 0.27% active;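 active means fall in fluorescence gain of 50% or more versus controls, with final raw signal at or below 3038400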;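 further: plate controls were neutral control wells for no effect and wells lacking membranes for full effect; tested at 10 µM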
Target sequence (Q03530 whole entry, looked up): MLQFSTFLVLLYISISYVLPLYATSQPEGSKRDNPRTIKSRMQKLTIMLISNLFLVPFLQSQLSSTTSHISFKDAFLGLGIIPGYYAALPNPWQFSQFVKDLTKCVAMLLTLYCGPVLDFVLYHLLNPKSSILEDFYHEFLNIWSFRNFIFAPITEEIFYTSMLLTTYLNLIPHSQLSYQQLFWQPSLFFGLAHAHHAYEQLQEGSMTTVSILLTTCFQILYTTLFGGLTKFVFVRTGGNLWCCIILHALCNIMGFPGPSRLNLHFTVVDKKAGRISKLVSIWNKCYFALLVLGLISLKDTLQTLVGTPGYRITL
MT1-MMP act inh – inhibitors of human MT1-MMP activation | AID 651647 | 360,000 tested, 0.061% active | HT1080 RFP-PRO-GFP cells, GFP/RFP ratio fluorescence, overnight; percent of plate control window, DMSO zero | P50281 | GFP/RFP ratio change, % at 20 µM;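 active means GFP/RFP ratio change of at least 30% with cell ATP level not reduced by more than half and red fluorescence within 50% of control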; further: strong numbers were not always called active
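system = RFP-PRO-GFP reporter HT1080 cells | dosing = 20 µM single dose, 1% DMSO | timing = overnight cell settling, then overnight compound exposure, 37 °C, 5% CO2 | read-out basis = GFP/RFP fluorescence ratio | controls = DMSO and RFP-L50D-GFP cell wells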
eIF4H FP inh retest – recorded beside eIF4H FP inh, whose call it bears; inhibition, %; compound at 20 µM; confirmation average;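 mean of two retest wells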
PABP FP inh retest – also measured in PABP FP inh; calls as there; inhibition, %; compound at 20 µM; confirmation repeats;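 mean of two retest wells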
MT1-MMP act inh RFP – recorded beside MT1-MMP act inh, whose call it bears; RFP signal change, %; measured here: RFP expression control read;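 0 = vehicle wells; hits needed this value within 50% of zero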
Active calls of the source: *; & = joins results of further samples; [ ] = remark or other dose. Some of the compounds tested, so the mix of outcomes need not match the whole.

What do the screens show for `Cc1oc2ccc(O)cc2c1C(=O)c1ccccc1`?
HIV Env fusion: 0; CSC inhib: 4; PABP FP inh: -4; eIF4H FP inh: 0; Yeast UUG start: -11; Rce1 inhib: inactive; MT1-MMP act inh: 0; MT1-MMP act inh RFP: -6

How did CCC1(C)Cc2ccccc2-c2nc3n(c(=O)c21)CC(C(=O)O)S3 (configuration not stated) do in these assays?
CSC inhib: 17; PABP FP inh: 15; eIF4H FP inh: -6; Yeast UUG start: -4; Rce1 inhib: inactive; MT1-MMP act inh: 11; MT1-MMP act inh RFP: 6

How did C[C@H](CO)N1C[C@H](C)[C@@H](CN(C)S(=O)(=O)c2ccc(Oc3ccccc3)cc2)OCc2cnnn2CCCC1=O do in these assays?
HIV Env fusion: 24[16.7 µM]; Yeast UUG start: -11&9&1; MT1-MMP act inh: 2; MT1-MMP act inh RFP: 4

How did C=CCOC(=O)C1=C(C)N=C2SCCC(=O)N2C1c1ccc(OC(=O)c2ccco2)cc1 (configuration not stated) do in these assays?
HIV Env fusion: -100; CSC inhib: -4; PABP FP inh: -1; eIF4H FP inh: -7; Yeast UUG start: -18; Rce1 inhib: inactive; MT1-MMP act inh: -2; MT1-MMP act inh RFP: -1

How did Brc1ccc2nc(N3CCN(c4ccccc4)CC3)sc2c1 do in these assays?
HIV Env fusion: -18; CSC inhib: -7; PABP FP inh: 7; eIF4H FP inh: -1; Yeast UUG start: -51; Rce1 inhib: inactive; MT1-MMP act inh: 5; MT1-MMP act inh RFP: 5

What do the screens show for `COc1ccccc1C(=O)N/C(=C\c1ccc(Br)cc1)C(=O)NCCCO`?
HIV Env fusion: 8; CSC inhib: -12; PABP FP inh: 2; eIF4H FP inh: 2; Rce1 inhib: inactive; MT1-MMP act inh: 3; MT1-MMP act inh RFP: -1

Results for CCc1ccccc1NC(=O)c1nnn(CC(=O)Nc2cccc(C)c2)c1N ?
HIV Env fusion: -73; CSC inhib: -17; PABP FP inh: -4; eIF4H FP inh: -8; Yeast UUG start: -8; Rce1 inhib: inactive; MT1-MMP act inh: 2; MT1-MMP act inh RFP: -2

How did O=C1NC(=S)N/C1=C/c1cc([N+](=O)[O-])ccc1N1CCOCC1 do in these assays?
HIV Env fusion: -3; CSC inhib: 5; PABP FP inh: -4; eIF4H FP inh: -4; Rce1 inhib: inactive; MT1-MMP act inh: -1; MT1-MMP act inh RFP: 1

What do the screens show for `CCOC(=O)C1CCN(S(=O)(=O)c2ccc3oc(=O)ccc3c2)CC1`?
HIV Env fusion: 11; PABP FP inh: 14; eIF4H FP inh: 2; Yeast UUG start: 10; Rce1 inhib: inactive; MT1-MMP act inh: -3; MT1-MMP act inh RFP: -8

Results for COc1ccc(NC(=O)N(Cc2cc3cc(C)ccc3[nH]c2=O)CC2CCCO2)cc1 (configuration not stated) ?
HIV Env fusion: 0; CSC inhib: -9; PABP FP inh: -7; eIF4H FP inh: -5; Yeast UUG start: -5; Rce1 inhib: inactive; MT1-MMP act inh: -4; MT1-MMP act inh RFP: -5

What do the screens show for `CCC(=O)c1ccc(OCC(O)CN2CC(C)OC(C)C2)cc1` (configuration not stated)?
CSC inhib: 10; PABP FP inh: -1; eIF4H FP inh: 4; Yeast UUG start: -20; Rce1 inhib: inactive; MT1-MMP act inh: -6; MT1-MMP act inh RFP: -2

What do the screens show for `COC(C[C@H](O)[C@H](C)[C@@H](O)COCc1ccccc1)OC`?
HIV Env fusion: 9; PABP FP inh: -6; eIF4H FP inh: 4; Yeast UUG start: -6; Rce1 inhib: inactive; MT1-MMP act inh: -2; MT1-MMP act inh RFP: 1

What do the screens show for `CCn1ncc(C2=NOC(C(=O)Nc3cnn(C45CC6CC(CC(C6)C4)C5)c3)C2)c1C` (configuration not stated)?
CSC inhib: 12; PABP FP inh: 10; eIF4H FP inh: 3; Yeast UUG start: -16; Rce1 inhib: inactive; MT1-MMP act inh: -2; MT1-MMP act inh RFP: -14

How did O=C1CNc2cc(Cl)ccc2N1 do in these assays?
HIV Env fusion: -8; Yeast UUG start: -4; MT1-MMP act inh: -2; MT1-MMP act inh RFP: 2

Results for CC1(NC(=O)NCc2ccccc2)CCS(=O)(=O)C1 (configuration not stated) ?
HIV Env fusion: -7; CSC inhib: -7; PABP FP inh: 6; eIF4H FP inh: 5; Rce1 inhib: inactive; MT1-MMP act inh: 1; MT1-MMP act inh RFP: 4

Results for CC(=O)c1cccc(N(C(=O)CNC(=O)c2ccco2)C(C(=O)NCC2CCCO2)c2ccccc2)c1 (configuration not stated) ?
HIV Env fusion: -10; CSC inhib: -14; PABP FP inh: -5; eIF4H FP inh: -19; Yeast UUG start: 3; Rce1 inhib: inactive; MT1-MMP act inh: 0; MT1-MMP act inh RFP: 2

How did Cc1cc(C)n2nc(C(=O)OCC(=O)NC(=O)c3ccccc3)nc2n1 do in these assays?
HIV Env fusion: 7; CSC inhib: -6; Yeast UUG start: -2; Rce1 inhib: inactive; MT1-MMP act inh: 1; MT1-MMP act inh RFP: 3

Results for Cc1c(N2C(=O)c3ccc4c5c(ccc(c35)C2=O)CC4)c(=O)n(-c2ccccc2)n1C ?
CSC inhib: -15; PABP FP inh: 71*; eIF4H FP inh: 93*; Rce1 inhib: inactive; MT1-MMP act inh: -3; MT1-MMP act inh RFP: 1

Results for Nn1c(SCC(=O)N2CCOCC2)nnc1-c1cccnc1 ?
CSC inhib: -2; Yeast UUG start: -11; MT1-MMP act inh: 3; MT1-MMP act inh RFP: 2

Results for O=C(CSc1ncn[nH]1)Nc1nc(-c2ccccc2)ns1 ?
HIV Env fusion: -60; CSC inhib: 30; PABP FP inh: -5; eIF4H FP inh: 2; Yeast UUG start: -14; Rce1 inhib: inactive; MT1-MMP act inh: -2; MT1-MMP act inh RFP: -2

Next part, starting with the last two of the part before.
Results for Nn1c(SCC(=O)N2CCOCC2)nnc1-c1cccnc1 ?
CSC inhib: -2; Yeast UUG start: -11; MT1-MMP act inh: 3; MT1-MMP act inh RFP: 2

Results for O=C(CSc1ncn[nH]1)Nc1nc(-c2ccccc2)ns1 ?
HIV Env fusion: -60; CSC inhib: 30; PABP FP inh: -5; eIF4H FP inh: 2; Yeast UUG start: -14; Rce1 inhib: inactive; MT1-MMP act inh: -2; MT1-MMP act inh RFP: -2

How did Cc1cccc(OCCNc2ccc([N+](=O)[O-])cn2)c1 do in these assays?
HIV Env fusion: 5; PABP FP inh: 1; eIF4H FP inh: -6; Yeast UUG start: -10; Rce1 inhib: inactive; MT1-MMP act inh: 5; MT1-MMP act inh RFP: -1

What do the screens show for `COc1ccc(C)cc1NC(=O)C1CCCN(S(=O)(=O)c2ccc3c(c2)CCCN3C(C)=O)C1` (configuration not stated)?
HIV Env fusion: 3; CSC inhib: -6; PABP FP inh: 9; eIF4H FP inh: -4; Yeast UUG start: 3; Rce1 inhib: inactive; MT1-MMP act inh: 1; MT1-MMP act inh RFP: -9

How did COc1ccc(Nc2c([N+](=O)[O-])ccc3c2=NC2(CCCCC2)N=3)cc1 do in these assays?
HIV Env fusion: -20; CSC inhib: -2; PABP FP inh: -18; eIF4H FP inh: -2; Yeast UUG start: -7; Rce1 inhib: inactive; MT1-MMP act inh: 3; MT1-MMP act inh RFP: 1

What do the screens show for `Cc1cnc(CNC(=O)C2CCC(=O)N(CCc3ccc(Cl)cc3)C2)cn1` (configuration not stated)?
HIV Env fusion: 0; PABP FP inh: 9; eIF4H FP inh: -6; Rce1 inhib: inactive; MT1-MMP act inh: -3; MT1-MMP act inh RFP: 1

How did O=C(NCc1ccco1)NCC(F)(F)F do in these assays?
CSC inhib: 4; PABP FP inh: -7; eIF4H FP inh: -5; Yeast UUG start: -7; Rce1 inhib: inactive; MT1-MMP act inh: 0; MT1-MMP act inh RFP: 0

How did CC(C)OCCCN1CN(S(=O)(=O)c2cccc(Cl)c2)c2nc3ccccc3nc21 do in these assays?
CSC inhib: 10; PABP FP inh: 6; eIF4H FP inh: -2; Yeast UUG start: 16; Rce1 inhib: inactive; MT1-MMP act inh: -4; MT1-MMP act inh RFP: -1

Results for CCC(=O)c1ccc(OCC(O)CNC(C)c2ccccc2)cc1 (configuration not stated) ?
HIV Env fusion: 2; CSC inhib: -5; PABP FP inh: 67; eIF4H FP inh: -1; Yeast UUG start: -2; Rce1 inhib: inactive; MT1-MMP act inh: -3; eIF4H FP inh retest: 2; PABP FP inh retest: -4; MT1-MMP act inh RFP: -3

Results for CN1C(=S)SC(N(O)C(=O)Nc2ccccc2)C1(C)C (configuration not stated) ?
CSC inhib: -9; PABP FP inh: -6; eIF4H FP inh: 2; Yeast UUG start: -21; Rce1 inhib: inactive; MT1-MMP act inh: 2; MT1-MMP act inh RFP: 4

Results for COc1ccccc1NS(=O)(=O)c1cccc(C(=O)N/N=C(\C)c2ccncc2)c1 ?
HIV Env fusion: 8; Yeast UUG start: -12; MT1-MMP act inh: 3; MT1-MMP act inh RFP: -2

What do the screens show for `Cc1ccc(-n2c(=O)[nH]c3c(C(N)=O)nc(CC(C)C)nc32)cc1`?
CSC inhib: -15; PABP FP inh: 9; eIF4H FP inh: 3; Yeast UUG start: 0; Rce1 inhib: inactive; MT1-MMP act inh: 18; MT1-MMP act inh RFP: 3

Results for Cc1oc(C(=O)O)cc1CSc1nnc(-c2ccccc2)n1C ?
HIV Env fusion: -18; CSC inhib: -18; PABP FP inh: 17; eIF4H FP inh: 1; Yeast UUG start: -8; MT1-MMP act inh: 1; MT1-MMP act inh RFP: 1

What do the screens show for `CC(C)(C)NC(=S)NCC1CC1`?
HIV Env fusion: -31; CSC inhib: -6; PABP FP inh: 3; eIF4H FP inh: 3; Rce1 inhib: inactive; MT1-MMP act inh: 9; MT1-MMP act inh RFP: -4

Results for CCN(CC)S(=O)(=O)c1ccc(SCC(=O)c2c(N)n(C3CC3)c(=O)[nH]c2=O)nc1 ?
HIV Env fusion: 3; Yeast UUG start: -2; MT1-MMP act inh: 2; MT1-MMP act inh RFP: -1

Results for COc1cccc(/C=N/NC(=O)Cn2cnc3c2c(=O)n(C)c(=O)n3C)c1OC ?
HIV Env fusion: -12; CSC inhib: -8; PABP FP inh: 10; eIF4H FP inh: 13; Yeast UUG start: 7; Rce1 inhib: inactive; MT1-MMP act inh: -2; MT1-MMP act inh RFP: -2

How did CN(CC(=O)Nc1cccc(F)c1)C(=O)/C=C/c1ccc(Br)s1 do in these assays?
HIV Env fusion: 8; CSC inhib: -1; Yeast UUG start: -11; Rce1 inhib: inactive; MT1-MMP act inh: -2; MT1-MMP act inh RFP: 2

How did CC1CCCCN1C(C(=O)O)c1ccccc1 (configuration not stated) do in these assays?
HIV Env fusion: -7; CSC inhib: -11; PABP FP inh: 5; eIF4H FP inh: -1; Rce1 inhib: inactive; MT1-MMP act inh: 0; MT1-MMP act inh RFP: 2

What do the screens show for `CCN(CC1CCCO1)C(=O)CCc1nnc(CCc2ccc(OC)cc2)o1` (configuration not stated)?
CSC inhib: 8; PABP FP inh: 2; eIF4H FP inh: -6; Yeast UUG start: -7; Rce1 inhib: inactive; MT1-MMP act inh: 0; MT1-MMP act inh RFP: 0

How did CC(C)C[C@H]1CN=C(Nc2ccccc2)N1CCC1CCCCC1 do in these assays?
HIV Env fusion: -20; CSC inhib: 12; PABP FP inh: 3; eIF4H FP inh: -5; Yeast UUG start: 2; Rce1 inhib: inactive; MT1-MMP act inh: 3; MT1-MMP act inh RFP: 0

Results for C[C@H]1CN([C@@H](C)CO)C(=O)c2cc(NC(=O)CCN3CCOCC3)ccc2O[C@H]1CN(C)C(=O)Nc1ccc(F)cc1 ?
HIV Env fusion: 0; CSC inhib: 2; Yeast UUG start: -8&7; MT1-MMP act inh: 10; MT1-MMP act inh RFP: 5
